# AmpC inh no det: inhibitors of E. coli AmpC beta-lactamase without detergent. P00811. AmpC nitrocefin hydrolysis, absorbance 480 nm, no detergent; potencies from a single point are estimates. Potency, µM (series often up to 28.7 µM), for inactives: at the highest dose activity change, negative = inhibition. hit rate 1.8% among 71,000. AID 585; active = falling curve, for most hits resting on a single point; inconclusive = weak or doubtful change; inactive = flat or rising curve; note: % of control where 0% means no effect; about half of the hits show no inhibition at the top dose; a quarter of the inactives give rising signals
# Target sequence (P00811 whole entry, looked up): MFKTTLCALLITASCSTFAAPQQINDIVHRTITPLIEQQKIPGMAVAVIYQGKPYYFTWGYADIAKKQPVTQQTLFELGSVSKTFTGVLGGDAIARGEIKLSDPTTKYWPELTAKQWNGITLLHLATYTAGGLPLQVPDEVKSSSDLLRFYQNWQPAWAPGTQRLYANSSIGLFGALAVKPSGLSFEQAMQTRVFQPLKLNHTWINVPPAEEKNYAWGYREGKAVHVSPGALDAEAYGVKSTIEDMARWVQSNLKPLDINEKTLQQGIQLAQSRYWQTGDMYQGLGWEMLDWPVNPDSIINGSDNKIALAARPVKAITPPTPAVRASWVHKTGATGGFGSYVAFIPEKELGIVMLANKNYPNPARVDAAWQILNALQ
#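 AmpC in 20 mM phosphate buffer pH 7.0 was preincubated 15 min at room temperature with compounds. Nitrocefin (800 uM stock) was then added and hydrolysis followed at 480 nm every 20 s for 4 min.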
# Active calls of the source: *; ? = inconclusive; [ ] = remark or other dose. Potency is the fitted concentration of half-maximal effect. Only part of the results is shown (hit frequency here may not be typical).
SMILES,AmpC inh no det
Cc1cccc(-c2c3c(=O)n(C)c(=O)n(C)c3c3c(C)cc(C)nn23)c1,20%
N#C/C(=C(/O)COC(=O)Cc1c[nH]c2ccccc12)c1nc2ccccc2[nH]1,?
CC1CCCC(C)N1c1nnc(N)s1 (stereo unspecified),4µM*[single pt active]
CCCCn1c(-c2cc(Cl)ccc2OC)n[nH]c1=S,-7%
COC(=O)c1cc(C)sc1NC(=O)c1cccnc1,38%
CCCCC(=O)Nc1ccc(C(=O)NCCCn2ccnc2)cc1,-3%
COc1ccc(CNC(=O)COc2ccc(S(=O)(=O)NC(C)C)cc2)cc1,10%
Fc1ccc2nc(N3CCCCC3)sc2c1,0%
CC(C)NC(=O)NC(=O)COc1ncnc2sccc12,-6%
Cc1ccc(S(=O)(=O)Nc2ccc(NC(=O)CN3CCCCC3)cc2)cc1,-7%
COc1ccc(C)cc1N(C(=O)CNC(=O)c1ccco1)C(C(=O)NC1CCCC1)c1cccnc1 (stereo unspecified),49%
COc1ccc(NC(=O)Nc2ccc(C(=O)N3CCOCC3)cc2)cc1,-1%
O=C(O)C1CCCN(C(=O)NCc2ccccc2)C1 (stereo unspecified),-3%
Cc1cc(C(=O)Nc2cccc(O)c2)c(C)o1,-6%
CC(C(=O)Nc1nc2ccccc2[nH]1)N1C(=O)C2CC=CCC2C1=O (stereo unspecified),-8%
CCOC(=O)c1[nH]c(C)c(C(=O)N2CCN(c3cccc(Cl)c3)CC2)c1C,116%
COc1cccc(OCCn2cc(C(=O)c3ccco3)c3ccccc32)c1,-2%
CC(Sc1nc(N(C)C)nc(N2CCOCC2)n1)C(=O)Nc1ccccc1 (stereo unspecified),60%
CCCOC(=O)CSc1nnc(-c2cc(OC)c(OC)c(OC)c2)o1,51%
COC(=O)c1ccc(OCC2c3cc(OC)c(OC)cc3CCN2C(=O)c2ccco2)cc1 (stereo unspecified),118%
COc1cc(C(=O)NCc2nnc(SCC(=O)NCc3ccccc3)o2)cc(OC)c1OC,4%
CC(OCc1ccccc1)C(NC(=O)OC(C)(C)C)C(=O)NCC1CCCO1 (stereo unspecified),41%
COc1ccc(-c2nc3cnc(N4CCN(C)CC4)nc3n(C3CC3)c2=O)cc1,65%
Cn1c(Cn2cnc3ccccc32)nnc1SCc1ccccc1,-13%
COc1ccc([C@@H]2[C@H]3CN(C(C)=O)CC=C3C(C#N)=C(N)C2(C#N)C#N)c2ccccc12,73%

# Remaining list, next part.
SMILES,AmpC inh no det
COc1ccc(C)cc1S(=O)(=O)N(C)CC(=O)Nc1ccccc1,6%
Cc1csc(NC(=O)CSc2nnc(Cc3cccn3C)n2CCc2ccccc2)n1,125%
COc1ccc(Oc2ncc3ncc(=O)n(C[C@H]4CCCO4)c3n2)cc1,34%
O=C(c1cc2ccccc2oc1=O)N1CCN(c2ccc(N3CCOCC3)nn2)CC1,28%
O=C(NC1CCCc2ccccc21)C1CCC(CNc2c(N3CCOCC3)c(=O)c2=O)CC1 (stereo unspecified),3.2µM*[single pt active]
O=c1c2ccccc2sn1-c1ccc(S(=O)(=O)N2CCCCC2)cc1,-7%
CCCOC(=O)c1ccc(OCC(O)CN2CCN(C(=O)c3ccccc3)CC2)cc1 (stereo unspecified),124%
Nc1ccc(N=Nc2ccccc2)c(N)c1,-11%
O=C(O)CSCc1nc2ccccc2s1,-10%
CC(C)c1ccc(S(=O)(=O)c2n[nH]n3c2nc(=O)c2ccccc23)cc1,?
CC(=O)N1CCN(c2ccc(Nc3nc(C)nc4c3oc3ccccc34)cc2)CC1,142%
N[C@@H](Cn1oc(=O)[nH]c1=O)C(=O)O,2%
O=C(OCC(=O)N1CCN(C(=O)c2ccco2)CC1)c1sc2cc(F)ccc2c1Cl,128%
COc1cc(NS(=O)(=O)c2ccc(F)cc2)c(C(=O)O)cc1OC,5%
O=c1cnc2cnc(N3CCNCC3)nc2n1CCc1ccccc1,-16%
O=C1N=C(N2CCCCC2)SC1=C1CCCC1,17%
COc1ccc(S(=O)(=O)N(C)CC(=O)Nc2ccc3c(c2)OCO3)cc1OC,9%
CCCCCCc1ccc(OCC(=O)O)cc1OCC(=O)O,-10%
c1ccc(Nc2cc(-c3ccoc3)ncn2)cc1,62%
O=C(CSc1nnc(-c2cccnc2)n1Cc1ccco1)c1ccc(Cl)cc1,9%
COc1ccc(CCNC(=O)c2nn(C)cc2Cl)cc1,4%
Cc1nn(Cc2ccccc2)c(N)c1C#N,-3%
Cc1cnc(C(=O)Nc2ccc(N3CCOCC3)cc2)cn1,0%
CCc1ccc(N2CC34C=CC(O3)C(C(=O)OC)C4C2=O)cc1 (stereo unspecified),4µM*[single pt active]
O=C(c1ccco1)N1CCN(C(=O)C(Sc2ccccc2)c2ccccc2)CC1 (stereo unspecified),62%

# Ordered by heavy-atom count (rising): some entries from above.
SMILES,AmpC inh no det
N[C@@H](Cn1oc(=O)[nH]c1=O)C(=O)O,2%
O=C(O)CSCc1nc2ccccc2s1,-10%
Nc1ccc(N=Nc2ccccc2)c(N)c1,-11%
O=C1N=C(N2CCCCC2)SC1=C1CCCC1,17%
c1ccc(Nc2cc(-c3ccoc3)ncn2)cc1,62%
COc1ccc(CCNC(=O)c2nn(C)cc2Cl)cc1,4%
CCCCCCc1ccc(OCC(=O)O)cc1OCC(=O)O,-10%
CCc1ccc(N2CC34C=CC(O3)C(C(=O)OC)C4C2=O)cc1 (stereo unspecified),4µM*[single pt active]
COc1ccc(C)cc1S(=O)(=O)N(C)CC(=O)Nc1ccccc1,6%
O=c1c2ccccc2sn1-c1ccc(S(=O)(=O)N2CCCCC2)cc1,-7%
CC(C)c1ccc(S(=O)(=O)c2n[nH]n3c2nc(=O)c2ccccc23)cc1,?
COc1ccc(S(=O)(=O)N(C)CC(=O)Nc2ccc3c(c2)OCO3)cc1OC,9%
O=C(c1ccco1)N1CCN(C(=O)C(Sc2ccccc2)c2ccccc2)CC1 (stereo unspecified),62%
CC(=O)N1CCN(c2ccc(Nc3nc(C)nc4c3oc3ccccc34)cc2)CC1,142%
Cc1csc(NC(=O)CSc2nnc(Cc3cccn3C)n2CCc2ccccc2)n1,125%
COc1ccc([C@@H]2[C@H]3CN(C(C)=O)CC=C3C(C#N)=C(N)C2(C#N)C#N)c2ccccc12,73%
O=C(NC1CCCc2ccccc21)C1CCC(CNc2c(N3CCOCC3)c(=O)c2=O)CC1 (stereo unspecified),3.2µM*[single pt active]

# The results go on.
SMILES,AmpC inh no det
CC(=O)N1CC=CC1(CC(C)C)C(=O)NCc1cc(F)cc(C(F)(F)F)c1 (stereo unspecified),38%
Cc1cc(C)nc(NS(=O)(=O)c2ccc(NC(=O)c3ccco3)cc2)n1,-12%
COc1cc(CCC(=O)OCC(=O)Nc2ncc(Cl)cc2Cl)cc(OC)c1OC,24%
CC1CN(C(=O)c2cccc(C(=O)N3CC(C)OC(C)C3)c2)CC(C)O1 (stereo unspecified),6%
CCCCN(CCCC)CCNC(=O)Cc1nc2c(c(=O)[nH]c(=O)n2C)n1C,3%
CCn1c2ccccc2c2nnc(SCC(=O)Nc3cc(C)on3)nc21,-10%
CCOc1ccc(C(=O)CCNC(Cc2cnc[nH]2)C(=O)O)cc1 (stereo unspecified),31%
CCc1c(C)[nH]c2ccc(C)cc2c1=O,-5%
O=C(c1cnccn1)N1CCC2(CC1)CN(Cc1ccccc1)C2,84%
CC1SC(=NC(=O)c2ccco2)NC1=O (stereo unspecified),-1%
COCCn1c(=O)c(-c2cccc(C#N)c2)nc2cnc(Oc3ccccc3)nc21,13%
Cc1ccccc1CCNC(=O)C1CCN(S(=O)(=O)c2ccc(-n3cnnn3)cc2)CC1,13%
CCOc1ccc(NC(=O)C2CCN(S(=O)(=O)c3c(C)n[nH]c3C)CC2)cc1,0%
CSc1nsc(SCC(=O)Nc2c(C)n(C)n(-c3ccccc3)c2=O)n1,-16%
Cc1cc(C)c2cc(CN(Cc3cccs3)Cc3nnnn3CC3CCCO3)c(=O)[nH]c2c1 (stereo unspecified),125%
O=C(c1ccccc1)c1ccc(Oc2ncccn2)cc1,-11%
CCOC(=O)C(Cc1c(F)cccc1F)(NC(C)=O)C(=O)OCC,10%
Cc1ccc(NC(=O)CSc2nnc(CNC(=O)c3c(F)cccc3Cl)o2)cc1,10%
CC[C@H](c1ccccc1)c1cc(C(C)(C)C)cc(C(C)(C)C)c1O,-6%[5.75 µM]
COC(=O)c1ccc2c(=O)n(C3CCCCC3)c(SCC#N)nc2c1,28%
CCn1c(Cn2nnc(-c3ccccc3)n2)nnc1SCC(=O)Nc1cccc(C)c1C,93%
Cc1ccc(C(=O)OCC(=O)N2CC(=O)Nc3ccccc32)s1,-4%
CCC(C)[C@@H](C(=O)Nc1ccc2c(c1)OCO2)N1Cc2ccccc2C1=O (stereo partly specified),20%
CCCN(CCC)CCCNC(=O)c1ccc2c(c1)N(CC)C(=O)c1ccccc1S2=O (stereo unspecified),11%
Cc1ccc(C)c(CSc2nnc(-c3ccccn3)n2N)c1,3%

# Random excerpt: 2 records from the list, in no set order.
SMILES,AmpC inh no det
O=C(c1ccccc1)c1ccc(Oc2ncccn2)cc1,-11%
Cc1cc(C)nc(NS(=O)(=O)c2ccc(NC(=O)c3ccco3)cc2)n1,-12%

# The list goes on:
SMILES,AmpC inh no det
CC(=O)O[C@@H]1CC(C)=C2[C@H]1[C@H](C)CC[C@H]2/C=C(\C)C(=O)O,1%
CCCCN(Cc1cc2cc(OC)ccc2[nH]c1=O)C(=O)c1ccco1,9%
OC1(c2ccc(F)cc2)CCN(Cc2nnnn2Cc2cccs2)CC1,43%
COc1cccc(-n2c(SCC(=O)NCCC3=CCCCC3)nc3n[nH]c(C)c3c2=N)c1,73%
CCOC1CCCCC1NS(=O)(=O)c1ccc(Cl)cc1 (stereo unspecified),-6%
CN(c1ccccc1C(=O)Nc1cccnc1)S(C)(=O)=O,-8%
O=C(CSc1nc2ccccc2c(=O)n1NC(=O)Cc1ccccc1)NCc1ccco1,-10%
COc1cccc(Nc2ncc3nc(-c4cc(F)cc(F)c4)c(=O)n(C[C@H]4CCCO4)c3n2)c1,-17%
CCOC(=O)CNc1c(-c2ccc(Cl)cc2)nc2cnccn12,39%
O=C(CCCN1C(=O)c2ccccc2C1=O)Nc1ccccc1C(=O)N1CCOCC1,14%
CCOCCc1nnc(NC(=O)c2cccc(F)c2)s1,-6%
O=C(Nc1cccc(NC(=O)c2ccc(-c3cccc(Br)c3)o2)c1)c1ccco1,?
Cn1c(SCC(=O)NCc2ccc3c(c2)OCO3)nnc1C1COc2ccccc2O1 (stereo unspecified),44%
Cc1ccc(-c2cc(-c3ccc4c(c3)OCO4)c(C#N)c(N)n2)o1,27%
CCOC(=O)N1CCN(c2cc(=O)n(-c3cccc(Br)c3)c(=O)[nH]2)CC1,69%
Cc1cc(Nc2cccc(F)c2)n2nc(C)nc2n1,-10%
COc1cc2c(cc1OC)C(C(=O)N1CCN(c3ccccn3)CC1)C(c1cccs1)N(C)C2=O (stereo unspecified),79%
COc1ccccc1-c1nnc(SCC(=O)NCc2c(C)c(Cl)cc(C(C)C)c2O)o1,94%
Cc1onc(-c2c(Cl)cccc2Cl)c1C(=O)N[C@H]1C(=O)N2[C@H]1SC(C)(C)[C@H]2C(=O)O,0.0016µM*
CCOC(=O)CCCCC(=O)c1[nH]c(=O)[nH]c1CSc1nc(C)cc(C)n1,56%
CCCn1c(CN2CCCCC2C)nc2c1c(=O)n(C)c(=O)n2C (stereo unspecified),-4%
CCOc1ccccc1NC(=O)NC1(C(=O)N2CCOCC2)CCCCC1,19%
C[C@@H](Cc1cccc(C(F)(F)F)c1)NCCCc1ccccc1,-13%
Nc1nnc(N2CCCCC2)s1,-16%
COC(=O)c1ccccc1N,-9%
COc1ccc(NC(=O)CSc2nnc(-c3cccs3)n2-c2ccccc2)cc1,8%
CN(C)Cc1cc(O)c(O)c(CN(C)C)c1,-2%[5.75 µM]
O=C1CC(c2ccc(F)cc2)CC(O)=C1C=NCCN1CCN(C(=O)Nc2ccccc2)CC1 (stereo unspecified),90%
Cc1[nH]c2ccccc2c1CCC(N)=O,-6%

# Bioassay records (PubChem)
